D2 PAM: Beta-Arrestin HTS for Positive Allosteric Modulators of the Human D2 Dopamine Receptor: Potentiators | DiscoveRx D2 beta-arrestin cells, luminescence, 90 min; 100% = 57 uM dopamine signal | potentiation, % (concentration not given with the values) | 360,000 tested, 0.23% active; active = potentiation of 50% or more; inconclusive = 30% to 50%; inactive = 30% or less;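 also: compound concentration not given in the record; tested on top of an EC20 dose of dopamine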
Target sequence (P14416 whole entry, looked up): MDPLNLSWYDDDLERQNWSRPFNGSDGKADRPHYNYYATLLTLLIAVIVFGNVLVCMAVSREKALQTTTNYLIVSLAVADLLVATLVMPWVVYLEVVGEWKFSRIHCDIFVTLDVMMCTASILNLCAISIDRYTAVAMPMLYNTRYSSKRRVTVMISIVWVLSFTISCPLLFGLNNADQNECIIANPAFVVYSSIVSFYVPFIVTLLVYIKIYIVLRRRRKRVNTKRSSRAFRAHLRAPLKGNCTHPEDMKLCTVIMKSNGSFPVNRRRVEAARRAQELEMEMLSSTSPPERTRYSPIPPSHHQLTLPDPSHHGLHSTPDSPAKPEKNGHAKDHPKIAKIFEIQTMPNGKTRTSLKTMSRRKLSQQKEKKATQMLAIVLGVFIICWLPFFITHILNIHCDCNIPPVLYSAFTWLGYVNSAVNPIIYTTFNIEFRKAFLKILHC
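D2 cells co-treated with compound plus 50 nM dopamine (EC20) for 90 min at 37 deg C to detect potentiation. Beta-arrestin recruitment was read as enzyme-fragment luminescence after 1 h at ambient temperature. Full response was set by 57 uM dopamine.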
CtBP-E1A inh: qHTS Assay for Inhibitors of the CtBP/E1A Interaction. CtBP / adenovirus E1A interaction (AlphaScreen). AlphaScreen GST-E1A/His-CtBP binding, 1536-well; active compounds read low; control for the full effect not named in the record. activity change, % (test concentration not listed). 340,000 tested, 0.49% active. AID 651724, 2012; in the data active means activity change below about -65%; inconclusive means about -30% to -65%; inactive means above about -30%; also: % is scaled to controls: 0 for no effect and ±100 for the full control effect
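GST-E1A and His-tagged CtBP (125 nM each as 5X stock) were preincubated with pin-transferred compound for 2 h at 37 °C in the dark, then glutathione donor and nickel acceptor beads were added for 1 h before AlphaScreen reading.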
PINK1 modulator: A Quantitative High throughput Screen to Identify Chemical Modulators of PINK1 Expression. PINK1 immunofluorescence, high-content cytometry, 24 h. Potency, µM (series often up to 76.6 µM), for the others: at the top dose activation (PINK1 increase), actives largely listed as activators. 410,000 tested, 0.2% active; active = well fitted activation curve with a large enough effect; inconclusive = small, poorly fitted or top-dose-only effect; inactive = flat fitted curve, though single readings scatter; cell line not stated here;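 also: potency is read from the fitted curve at half-maximal effect; % of control where 0% means no effect; nearly all actives have a fitted effect of over 65% in size; a mitochondrial uncoupler was the plate control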
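PINK1 protein level read as immunofluorescence by microplate cytometer in a fixed, stained stable cell line after 24 h exposure to five compound concentrations, with CCCP as control.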
Six1-Eya2 inh: qHTS Assay for Inhibitors of the Six1/Eya2 Interaction; AlphaScreen GST-Six1/His-Eya2 binding, biochemical; active compounds read low; control for the full effect not named in the record; activity change, % (concentration not given with the values); 360,000 tested, 0.56% active; in the data active = activity change below about -65%; inconclusive = about -30% to -65%; inactive = above about -30%; also: % is scaled to controls: 0 for no effect and ±100 for the full control effect
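Six1/Eya2 binding was read as AlphaScreen signal after compounds were pinned into GST-Six1 plus His-tagged Eya2 (5X stock 250/500 nM) in pH 8.0 Tris/NaCl/TCEP buffer, beads added, then incubated 1 h, 37 C, dark.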
D2 agonist: Beta-Arrestin HTS for Positive Allosteric Modulators of the Human D2 Dopamine Receptor: Agonists. D(2) dopamine receptor (Homo sapiens), P14416. DiscoveRx PathHunter D2 beta-arrestin, luminescence, 90 min; 100% = 57 uM dopamine signal. activation, % (no concentration beside the values). 360,000 tested, 0.084% active. AID 624465, 2012; in the data active = activation above about 40%; inconclusive = about 15% to 40%; inactive = below about 15%; also: compound concentration not given in the record; the text of the record calls up to 30% inactive
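Agonist mode: compounds alone added to overnight-plated D2 PathHunter cells for 90 min at 37 C, with 57 uM final dopamine (EC100) defining full response. Beta-arrestin recruitment detected by chemiluminescent reagent, read after 1 h at ambient temperature.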
TRPV1 PAM: HTS Assay for Compounds that Act as Potentiators of the Vanilloid Receptor 1 | 320,000 tested, 0.02% active | potentiation, % at 8.33 µM | Transient receptor potential cation channel subfamily V member 1 (Homo sapiens), Q8NER1 | TRPV1-expressing cells, Fluo-8 calcium influx, capsaicin EC20 potentiation; host cell line not named in the record; control for the full effect not named in the record; active means potentiation above 80%; inconclusive means 30% to 80%; inactive means below 30%; also: 0% is about no effect
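Cells expressing TRPV1 were dye-loaded with Fluo-8 and read kinetically: 10 s baseline, 3 min after compound (agonist portion), then 2 min after EC20 capsaicin (allosteric enhancer portion). Calcium-bound dye fluorescence at 480/520 nm.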
Sfp inh: qHTS Assay for Inhibitors of Bacillus subtilis Sfp phosphopantetheinyl transferase (PPTase); 4'-phosphopantetheinyl transferase ffp (Bacillus subtilis), Q9F4F7; Biochemical Sfp PPTase activity, qHTS; Potency, µM, inactives show max response, negative = inhibition, actives largely listed as inhibitors; 310,000 tested, 3.5% active; active = well fitted inhibition curve with a large enough effect; inconclusive = small, poorly fitted or top-dose-only effect, or another doubt; inactive = no such curve, though single readings can be large or run the other way;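 also: the enzyme is Sfp with the accession as filed and its product quenches rhodamine fluorescence; potency is read from the fitted curve at half-maximal effect; 0% = enzyme reaction without inhibitor and -100% = no enzyme wells; top concentration of the series not given in the record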
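With Hepes-Na pH 7.6 buffer containing 10 mM MgCl2, Sfp (15 nM) modified BHQ-2-YbbR (12.5 uM) using rhodamine-CoA (5 uM). Two reads 30 minutes apart at 525/598 nm yielded each well's rate.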
* hit, by the source's call; ? = inconclusive; nt = not tested or not shown; & = joins results of further samples; [ ] = another dose, or the depositor's remark.

SMILES	D2 PAM	CtBP-E1A inh	PINK1 modulator	Six1-Eya2 inh	D2 agonist	TRPV1 PAM	Sfp inh
O=C(Nc1ccc(-c2nc3ccc(NC(=O)c4cccs4)cc3[nH]2)cc1)c1cccs1	13.3	-0.8	6.3%	-5.0	4.8	8.8	-17.3%
COc1ccccc1C(=O)C1CCCN(C(=O)CN2CCCCC2=O)C1 (centres undefined)	-4.4	4.1	-0.1%	0.9	-3.4	0.9	20.4%
COc1ccc(C(C#N)N2N=C(C)CC2c2ccccc2)cc1OC (centres undefined)	-7.5	0.0	3.9%	7.8	0.5	-4.2	27.1%
O=C(COC(=O)c1cnccn1)c1cccc([N+](=O)[O-])c1	-49.9	nt	1.3%	18.9	-20.2	4.2	-6.4%
COc1ccc(S(=O)(=O)c2nnn(-c3cccc(OC)c3)c2N)cc1	-1.4	6.3	5.2%	-0.2	-0.6	-20.9	7.8%
CCCCCc1ccc(-c2ccc(/C=C/C(N)=O)cc2)nc1	-15.0	13.4	2.6%	16.9	-1.8	4.7	15.8%
COCCn1c(C)cc(C2=NNC(=NC(C)(C)C)SC2)c1C	-4.4	-1.1	7.8%	-2.6	-2.8	0.7	-7.3%
Cc1sc2ncnc(N3CCC(C(=O)Nc4nc(-c5cccs5)cs4)CC3)c2c1C	-22.3	7.7	-0.2%	-12.3	-1.7	-8.3	nt
O=C(CCC1COc2ccccc2O1)Nc1ccc(Cl)cn1 (centres undefined)	5.9	4.7	?	15.6	-0.8	-1.2	3.0%
COc1ccc2oc(=O)c(C(=O)NCc3ccccc3)cc2c1	-2.2	8.2	3.6%	-2.2	3.3	9.3	24.2%
CCn1c(=O)c(C(=O)NCc2cccnc2)c(O)c2ccccc21	-18.7	1.8	-0.8%	-3.1	-2.2	-3.8	8.1%
CCC(=O)Nc1ccc(NC(=O)c2c(C)nc3ccccn23)cc1	-26.9	7.6	-1.8%[38.3 µM]	-1.8	-1.4	14.1	9.2%
O=C1Nc2ccc([N+](=O)[O-])cc2OC1CCN1CCN(c2ccccc2)CC1 (centres undefined)	-10.3	-7.3	-1.0%	-15.0	-0.3	7.1	11.0%
CCOC(=O)c1nc(NCCc2ccccc2)sc1C	-0.7	-1.6	4.6%	-4.0	-4.7	-11.2	-9.0%
COc1ccc(/C=N/c2c(-c3ccco3)nc3ccccn23)cc1OC	20.0	?	-1.7%	-17.0	5.1	9.6	-16.6%
CCc1ccc(NC(=O)CS(=O)CC(=O)Nc2ccc(N3CCOCC3)cc2)cc1 (centres undefined)	-2.3	9.3	13.9%	-2.1	2.3	3.4	6.7%
CC(C)=CC1C=C(C)C(C)C2C(=O)NNC(=O)C12 (centres undefined)	0.3	8.5	-1.9%[38.3 µM]	-1.7	-2.6	2.8	5.3%
CC(Oc1ccc2c3c(c(=O)oc2c1)CCCC3)C(=O)NCC1CCC(C(=O)O)CC1 (centres undefined)	2.6	0.7	0.2%	1.0	6.3	-9.9	7.1%
Cc1cc(=O)[nH]c(SCc2nc3ccccc3n2Cc2ccccc2)n1	-7.5	2.8	9.2%[38.3 µM]	1.5	1.4	1.9	-9.9%
O=C(COC(=O)Cc1ccccc1F)NC(=O)NC1CCCC1	-0.4	nt	-0.3%	-3.6	8.2	nt	nt
CC(=O)NC(c1ccc(Cl)cc1)c1ccc2cccnc2c1O (centres undefined)	-16.9	nt	-2.1%	?	-0.9	nt	nt
O=C(Nc1nnc(-c2cc(Cl)ccc2Cl)o1)C1=COCCO1	0.6	2.9	1.3%	-0.2	0.7	-7.9	nt
Cc1cccc(NC(=O)CCS(=O)(=O)c2ccccc2)n1	-3.9	7.9	0.0%	4.3	2.7	2.0	9.6%
COc1ccc(C2CC(Cn3cc(C#N)c(=O)n(C)c3=O)ON2C)cc1 (centres undefined)	1.9	-13.1	-0.4%	18.9	-4.0	10.7	5.4%
CCCCC(=O)NC(c1cccc([N+](=O)[O-])c1)c1ccc2cccnc2c1O (centres undefined)	-30.8	nt	1.8%	?	-6.0	nt	nt

Entries above with two or more sulfur atoms:
SMILES	D2 PAM	CtBP-E1A inh	PINK1 modulator	Six1-Eya2 inh	D2 agonist	TRPV1 PAM	Sfp inh
O=C(Nc1ccc(-c2nc3ccc(NC(=O)c4cccs4)cc3[nH]2)cc1)c1cccs1	13.3	-0.8	6.3%	-5.0	4.8	8.8	-17.3%
Cc1sc2ncnc(N3CCC(C(=O)Nc4nc(-c5cccs5)cs4)CC3)c2c1C	-22.3	7.7	-0.2%	-12.3	-1.7	-8.3	nt

(more compounds)
SMILES	D2 PAM	CtBP-E1A inh	PINK1 modulator	Six1-Eya2 inh	D2 agonist	TRPV1 PAM	Sfp inh
COc1ccc(CCNC(=O)CSc2nnc(Cn3c(=O)sc4ccccc43)n2C)cc1OC	-3.0	4.1	-2.1%[38.3 µM]	1.5	-1.3	-2.0	8.6%
Cc1ccc2cc(C3C(C#N)=C(N)Oc4c3ccc3cccnc43)c(=O)[nH]c2c1 (centres undefined)	-16.2	-93.7*	1.3%[38.3 µM]	-71.7*	-2.7	-0.3	10µM*
C/C(=C\C(=O)C(F)(F)F)Nc1ccc(C(F)(F)F)cc1	-15.3	3.0	1.0%	-2.4	-2.0	25.7	18.0%
CSCCC(Nc1nc2ccccc2s1)C(=O)O (centres undefined)	-4.7	3.7	-2.1%	5.6	-0.1	10.3	-8.5%
CC1CCCC(N2CCN(S(=O)(=O)c3ccccc3)CC2)C1 (centres undefined)	-4.4	-9.3	0.2%	16.0	-3.9	13.4	?
Cc1ccc(Cl)cc1NS(=O)(=O)c1ccccc1	0.6	0.0	4.1%	12.0	2.5	nt	nt
COc1cccc2sc(N3CCN(c4nc5ccccc5s4)CC3)nc12	-13.6	4.0	4.5%	22.0	-3.1	3.7	7.7%
Cc1ccccc1Nc1c(N)c(=O)oc2ccccc12	20.7	-6.3	2.2%	-15.3	4.2	1.5	3.3%
Cc1ccc(O)c(C(=O)c2cnc3c(c2)CN(CCC(C)C)C(=O)N3)c1	0.8	1.2	11.7%	-0.8	4.9	11.3	-5.4%
Cc1cc(C)nc(NS(=O)(=O)c2ccc(-n3cccc3)cc2)n1	-17.8	2.8	-0.4%	-7.1	-3.9	3.1	-6.6%
Cc1cccc2c1N(CCCOc1ccccc1)C(=O)C2=O	-60.1	-0.5	-0.4%	-0.1	-12.2	3.1	1.7%
CCN(CC)c1ccc(NC(=O)c2ccccc2F)cc1S(=O)(=O)Nc1ccccc1OC	16.4	-17.8	0.2%	-4.0	1.2	1.2	14.1µM*
Nc1ccc(Cl)cc1C(=O)c1ccc[nH]1	-5.3	2.1	4.6%	-7.8	-6.4	nt	nt
CCCCOC(=O)C1[C@H]2C(=O)N(CCc3ccccc3)C[C@]23C=C[C@H]1O3 (some centres undefined)	-18.8	-8.4	-5.0%[38.3 µM]	-1.5	1.2	13.0	18.2%
CCCN(C)C1CN(Cc2cn(Cc3cc(C)cc(C)c3)nn2)S(=O)(=O)C1 (centres undefined)	nt	-2.1	-0.3%	0.3	nt	nt	nt
O=C(O)C1C2C=CC(O2)C1C(=O)NCCC1=CCCCC1 (centres undefined)	-8.8	-0.6	-1.0%	-2.4	-2.2	-2.7	2.8%
O=C(CCC1CCN(C(=O)c2cccc(Cl)c2F)CC1)Nc1ccccc1	-0.5	5.8	-1.4%	5.4	-2.5	-17.5	0.8%
CCOC(=O)C1(Cc2cccc(OC)c2)CCCN(C(=O)CSC)C1 (centres undefined)	-0.9	-7.5	-0.8%	-2.6	0.2	nt	nt
c1ccc(-c2csc(Nc3nc(N4CCOCC4)nc(N4CCOCC4)n3)n2)cc1	-14.2	-0.9	2.6%	-5.1	-3.8	-4.3	23.4%
O=C(NCc1ccc2c(c1)OCO2)C(=O)Nc1ccccc1	-9.9	-4.5	0.8%	-5.0	-0.7	-1.0	4.0%
CCCCNC(=O)C(=O)NCCCn1ccnc1	-6.3	15.9	0.9%	2.3	-0.2	4.5	1.3%
C=CCn1c(SCC(=O)Nc2ncc(Cc3ccc(Br)cc3)s2)nnc1-c1ccncc1	-8.1	-14.7	15.0%[38.3 µM]	-5.0	4.1	-8.0	3.6%
CSC1=N/C(=C/c2cccnc2)C(=O)N1Cc1ccc(Cl)cc1	-18.8	nt	5.8%	-1.8	0.1	1.9	-4.7%
CCSc1nc2ccccc2[nH]1	1.9&-7.9	8.2&2.3	?	6.3&0.7	-0.1&-0.2	15.1&4.1	6.6%&-0.7%
NS(=O)(=O)c1ccc(NC(=O)COC(=O)C2CC2)cc1	0.9	5.7	-1.7%	-0.4	0.7	nt	nt

Additional results follow:
SMILES	D2 PAM	CtBP-E1A inh	PINK1 modulator	Six1-Eya2 inh	D2 agonist	TRPV1 PAM	Sfp inh
Cc1cc(Cl)ccc1C1=CC(=O)C[C@H](c2ccc(F)cc2)C1	-2.9	19.0	0.1%	23.6	-2.2	-11.9	nt
Nc1ccn(Cc2cccc(F)c2)n1	2.2	nt	0.7%	0.1	-0.5	4.4	13.3%
Cc1n[nH]c(C)c1S(=O)(=O)N1CCC(C(=O)Nc2cccc(F)c2)CC1	-6.3	3.2	0.0%	-1.0	-1.8	?	9.6%
O=C(Nc1ccc(-c2nc3ccccc3o2)cc1)C1CCCO1 (centres undefined)	3.8	5.4	6.3%[38.3 µM]	-1.8	2.3	1.1	-0.9%
CCOC(=O)c1ccc(CSc2n[nH]c(C)n2)o1	3.4	2.9	-2.4%	-0.4	-3.8	-9.7	-1.7%
O=C(COc1ccc(Cl)cc1Cl)Nc1ccccc1F	?	-21.8	4.7%	0.8	-3.4	nt	nt
CC(=O)N1CCc2cc(S(=O)(=O)NC(CC(C)C)C(=O)N3CCc4ccccc4C3)ccc21 (centres undefined)	-3.2	-0.1	-1.4%	6.4	-2.9	-7.6	6.7%
CN(C)/N=C/c1c(O)ccc2ccccc12	4.7	?	1.8%	?	0.4	-18.9	-3.9%
OC[C@@H]1CN(Cc2ccc(-c3ccccc3)cc2)C[C@H](n2cnc3c(NC4CC4)ncnc32)O1	1.9	-1.2	-0.2%	-6.9	4.8	nt	nt
COc1ccc(N2C(=O)CCC(C(=O)O)C2c2ccc(F)cc2)cc1 (centres undefined)	-11.9	0.4	-1.4%	3.9	1.2	0.2	16.7%

Assay outcomes (PubChem)
